Screening data (PubChem)
VACV Venus inh = inhibitors of vaccinia virus (Venus reporter); Vaccinia virus Venus reporter expression, fluorescence; Potency, µM (titrated, usually from 36.5 µM), for inactives: at the top dose activity change, negative = inhibition, actives largely listed as inhibitors; 330,000 tested, 0.46% active; AID 720580; active means well fitted inhibition curve with a large enough effect; inconclusive means small, poorly fitted or top-dose-only effect; inactive means no such curve, though single readings can be large or run the other way; tested in A549 cells; also: nearly all actives have a fitted effect of over 30% in size; inactives centre near -10
Vaccinia mCherry = inhibitors of vaccinia virus infection (mCherry reporter signal); 310,000 tested, 0.63% active; Potency, µM (doses to about 36.5 µM), for inactives: at the top dose activity change, negative = inhibition, actives largely listed as inhibitors; Vaccinia virus mCherry reporter infection, fluorescence; about a quarter of the inactives have no number; AID 720579; active = well fitted inhibition curve with a large enough effect; inconclusive = small, poorly fitted or top-dose-only effect; inactive = no such curve, though single readings can be large or run the other way; tested in A549 cells; also: nearly all actives have a fitted effect of over 35% in size; inactives centre near -10
* = called active by the depositor; i = inactive; u = inconclusive; x = no result given; & = joins results of further samples; [ ] = another dose, or the depositor's remark. % is scaled to controls: 0 for no effect and ±100 for the full control effect; potency is read from the fitted curve at half-maximal effect.

SMILES	Vaccinia mCherry	VACV Venus inh
COC(=O)c1c(NC(=O)CCCC(=O)O)sc2c1CCC2	-12%	-2%
CC1(C(=O)NCC2CCCO2)Oc2cccnc2NC1=O (stereo not drawn)	3%	-6%
Cc1cc(=O)oc2cc(OC(=O)C3CCN(C(=O)c4ccc(F)cc4)CC3)ccc12	-11%	-18%
O=C(COC(=O)Cc1ccccc1F)Nc1cccc(F)c1	i	-15%
CCCNC(=O)Cn1c(-c2ccc(F)cc2)cc(C(=O)OCC)c1C	i	-12%
O=C(CN1CCSc2ccccc21)NCc1ccccc1F	-10%	4%
CCCS(=O)(=O)N1CCCC(C(=O)NCCN2CCOCC2)C1 (stereo not drawn)	x	-11%
O=C(Nc1ccccc1)C1COc2ccccc2O1 (stereo not drawn)	i	-9%
CCn1cc(C(=O)NCCCN2CCCC(C)C2)c(=O)c2cc(S(=O)(=O)N(C)C3CCCCC3)ccc21 (stereo not drawn)	-22%	-9%
COC(=O)C1Cc2c([nH]c3ccccc23)CN1C(C)=O (stereo not drawn)	i	0%
Cc1ccc2nc(CSc3nnc(NC(=O)C(C)C)s3)cc(=O)n2c1	i	-10%
COc1ccc(Nc2ncnc3sc(C)cc23)c(OC)c1	-27%	-18%
CCOc1ccc(CC(=N)C2=C(O)CC(C)(C)CC2=O)cc1OCC	-18%	-4%
CN(C)c1ncc(S(=O)(=O)c2ccccc2)c(-c2ccc(Cl)cc2Cl)n1	-14%	-2%
COc1ccc(CC(=O)NC(CC(=O)O)c2ccc(OC)cc2)cc1 (stereo not drawn)	-5%	1%
Cc1cccc(NS(=O)(=O)c2ccc(C)c(C(=O)NCC(c3cccs3)N(C)C)c2)c1 (stereo not drawn)	i	-13%
Cc1cccc(C)c1NC(=O)CCCN1C(=O)C(c2ccccc2)Oc2cccnc21 (stereo not drawn)	-7%[7.34 µM]	6%[7.34 µM]
COC(=O)C12OCC34C(CC5C(C)=C(O)C(=O)CC5(C)C3C(O)C1O)OC(=O)C(OC(=O)C=C(C)C)C24 (stereo not drawn)	32µM*	u
CC1O[C@@H](OC2CC[C@@]3(C=O)C4CC[C@]5(C)C(C6=CC(=O)OC6)CC[C@@]5(O)C4CC[C@]3(O)C2)C(O)C(O)C1O (stereo partly drawn)	25µM*	0.045µM*
Cc1ccc(NC(=O)CSc2nc(C)c(Cc3ccccc3)c(=O)[nH]2)cc1C	-24%&-12%	-10%&-6%
O=C(O)CCC(=O)/C=C/c1ccccc1	-14%	-12%
CCCCNC(=O)COC(=O)c1ccc(Cl)c(S(N)(=O)=O)c1	x	-9%
COc1ccc(N2CCN(C(=S)Nc3ccc(F)cc3)CC2)cc1	-1%	-13%
CCOc1ccc(NC2SC(=O)N(Cc3ccccc3)C2=O)cc1 (stereo not drawn)	-8%[7.34 µM]	-5%[7.34 µM]
CC(=O)Nc1ccc2c(c1)ncn2-c1ccc(C)cc1	i	-6%
O=C(/C=C/c1ccc(Br)o1)NC(c1ccccc1)c1ccccc1	i	-1%
O=C(COC(=O)c1cn(-c2ccccc2)nc1-c1ccccc1)Nc1ncc(Cl)cc1Cl	-10%	9%
CCc1n[nH]c(=S)n1/N=C/c1c(C)nn(-c2ccccc2)c1Cl	-2%	-14%
CCC1CCCCN1C(=O)c1nn(-c2ccc(C)cc2)c(=O)c2c1c1ccccc1n2C (stereo not drawn)	-4%	4%
Nc1nn(-c2cccc(F)n2)cc1-c1ccccc1	-7%	-5%
O=C(c1ccc(OCCN2CCCCC2)cc1)c1c(-c2ccc(O)cc2)sc2cc(O)ccc12	-7%	-16%&-18%
Cc1cc(C)cc(OCC(=O)Nc2ccc3c4c(cccc24)CC3)c1	-11%	-2%
O=c1c2cc(Cl)cc(Cl)c2nc2n1CCC2	-7%	-3%
CC(C)(C)NC(=O)C1c2ccccc2OCC(=O)N1Cc1cccnc1 (stereo not drawn)	7%	3%
Cc1csc(SCC(=O)Nc2ccccc2[N+](=O)[O-])n1	-12%	-7%
COc1ccc(Cn2c(O)c(C=Nc3ccc(O)cc3)c3ccccc3c2=O)cc1	-18%	-27%
O=C(NCCn1c(-c2ccncc2)nc2ccccc21)[C@H]1CCCN1c1nc(CN2CCCCC2)cs1	i	-16%
O=C(Nc1cccc(Cl)c1)c1ccc(S(=O)(=O)NCC2CCCO2)cc1 (stereo not drawn)	-26%	u
Clc1cccc(Cl)c1Cn1ccc(C2CC2)n1	i	-15%
O=c1[nH]c(SCc2ccc(F)cc2)nc2c1CCCC2	-15%	-9%
COc1ccc(CCN2CC(C(=O)Nc3cc(F)ccc3F)CC2=O)cc1OC (stereo not drawn)	-2%	6%
Cc1ccc(CNC(=O)c2cc3cc(C)ccc3n2C)cc1	-3%	-5%
S=C(NCCCNC(=S)Nc1ccccc1)Nc1ccccc1	-17%	-11%
COc1ccc(N(C(=O)CNC(=O)c2ccco2)C(C(=O)NC2CCCC2)c2cccnc2)cc1 (stereo not drawn)	21%	4%
O=c1c(-c2ccccc2)coc2cc(O)ccc12	1%	6%
COc1ccc(CC(C)N2CCN(c3cccc(C(F)(F)F)c3)CC2)cc1OC (stereo not drawn)	i	-24%
Cc1nnc(SCC(=O)N2CCC(Cc3ccccc3)CC2)n(N)c1=O	x	-17%
CCOC(=O)c1ccccc1NC(=O)COC(=O)CC(C)(C)CC1=NS(=O)(=O)c2ccccc2N1	2%	-12%
NC(N)=Nc1ccc(/C=C2\C=Cc3ccccc32)cc1	-17%	u
CCc1ccc2[nH]c3nc(SCC(=O)NCC4CCCO4)nnc3c2c1 (stereo not drawn)	-1%	-16%

Another view of some results above.
Molecule: CC(=O)Nc1ccc2c(c1)ncn2-c1ccc(C)cc1
  Vaccinia mCherry: i
  VACV Venus inh: -6%
Molecule: O=C(COC(=O)Cc1ccccc1F)Nc1cccc(F)c1
  Vaccinia mCherry: i
  VACV Venus inh: -15%

Exported with two lines to a compound: part of the list above
Values run as follows: Vaccinia mCherry, VACV Venus inh
Cc1cccc(NS(=O)(=O)c2ccc(C)c(C(=O)NCC(c3cccs3)N(C)C)c2)c1 (stereo not drawn)
  i, -13%
CCCCNC(=O)COC(=O)c1ccc(Cl)c(S(N)(=O)=O)c1
  x, -9%
CC1O[C@@H](OC2CC[C@@]3(C=O)C4CC[C@]5(C)C(C6=CC(=O)OC6)CC[C@@]5(O)C4CC[C@]3(O)C2)C(O)C(O)C1O (stereo partly drawn)
  25µM*, 0.045µM*
Clc1cccc(Cl)c1Cn1ccc(C2CC2)n1
  i, -15%

4 consecutive compounds from above, quoted:
SMILES	Vaccinia mCherry	VACV Venus inh
Cc1nnc(SCC(=O)N2CCC(Cc3ccccc3)CC2)n(N)c1=O	x	-17%
CCOC(=O)c1ccccc1NC(=O)COC(=O)CC(C)(C)CC1=NS(=O)(=O)c2ccccc2N1	2%	-12%
NC(N)=Nc1ccc(/C=C2\C=Cc3ccccc32)cc1	-17%	u
CCc1ccc2[nH]c3nc(SCC(=O)NCC4CCCO4)nnc3c2c1 (stereo not drawn)	-1%	-16%

Continued:
SMILES	Vaccinia mCherry	VACV Venus inh
CCOC(=O)CC1COCCN1C(=O)c1cc(COc2ccc(F)cc2Cl)on1 (stereo not drawn)	-26%	-10%
CCN(CC)C(=O)CSc1nc2sc(C)c(C)c2c(=O)[nH]1	x	u
COc1ccc(CNC(=O)c2cc(-c3cccs3)nc3ccccc23)c(OC)c1	-9%	5%
O=C(Cc1ccccc1[N+](=O)[O-])N1CCc2ccccc2C1	-6%	3%
COC(=O)c1ccc(CSc2nc(-c3ccco3)cc(C(F)(F)F)n2)o1	x	-29%
C=CCC(C(=O)NC(C)c1ccccc1)C(=O)NC(C)c1ccccc1 (stereo not drawn)	i	-8%
COc1ccc(N2C(=O)CC(NNC(=O)c3ccco3)C2=O)cc1 (stereo not drawn)	i	-12%
Cc1cc(NC(=O)c2ccc(OCC3CCCO3)cc2)ccc1Br (stereo not drawn)	-27%	-30%
Cc1cccc(NC(=O)c2ccc(S(=O)(=O)N(C)C)cc2)n1	x	-7%
C=CCNC(=O)C1CCN(S(C)(=O)=O)CC1	-15%	-5%
O=S(=O)(NCc1csc(-c2cccnc2)n1)c1ccc(Cl)s1	-20%	2%
Cn1cc(/C=C(\NC(=O)c2ccccc2)C(=O)NCCCn2ccnc2)c2ccccc21	-18%	-3%
OC(COc1ccc(F)cc1Cl)CN1CCc2ccccc2C1 (stereo not drawn)	u	-9%
C[C@H](CO)N1C[C@H](C)[C@@H](CN(C)Cc2cccnc2)OCc2cnnn2CCCC1=O	i	-14%
Cc1ccc(Cn2c(=N)c(C(=O)NCC3CCCO3)cc3c(=O)n4cccc(C)c4nc32)cc1 (stereo not drawn)	0%	-9%
Cc1cc(C)c2c(CN3CCN(Cc4ccc5c(c4)OCO5)CC3)cc(=O)oc2c1	x	-11%
CCCCNC(=S)NCC(c1ccccc1)c1c[nH]c2ccccc12 (stereo not drawn)	-15%	-13%
CCOc1ccc(/C=c2\sc3nc(-c4ccco4)nn3c2=O)cc1OCC	x	11%
O=C(c1cnn(C(=O)CN2CCCC2=O)c1)c1ccccc1O	i	-12%
COc1ccc(C(=O)Nc2nnc(-c3ccc(F)cc3)s2)c(OC)c1	-10%	-3%
CCOc1ccc(N(CC(=O)Nc2cccnc2)S(C)(=O)=O)cc1	i	-16%
Cc1cccc(NC(=O)CCCn2cc([N+](=O)[O-])cn2)n1	i	-6%
Cc1cccc(-n2c(C)cc(/C=N\NC(=O)c3ccco3)c2C)c1	-19%	13%
O=C(NCC(=O)N1CCCC1C(=O)O)OC1CCCCC1 (stereo not drawn)	x	-2%
CCN(CC)S(=O)(=O)c1ccc2c(c1)nc(CCC(=O)Nc1ccc3c(c1)OCO3)n2CC	i	-10%
COC(=O)c1cc(Cl)c(NC(=O)c2ccco2)cc1OC	-14%	-9%
O=C(CC(C(=O)O)c1ccccc1)Nc1ccccc1 (stereo not drawn)	-8%	-7%
COc1ccccc1N(C)S(=O)(=O)c1ccc(Cl)c(C(=O)NCc2cccnc2)c1	i	-15%
Cc1cccc(C)c1OCc1nnc(SCC(=O)Nc2cccc(C(=O)N3CCOCC3)c2)n1C	i	-9%
CN(C)/C=C/C(=O)c1ccc2noc(-c3ccc(F)cc3)c2c1	-6%	-24%
Cc1cccc(-c2nnc(SCC(=O)NC3CCCCC3)o2)c1	-9%	-9%
CCOC(=O)Cc1nnc(NC(=O)c2ccccc2OCC)s1	x	u
Cc1ccc(C)c(NC(=O)CS(=O)(=O)c2cccc3nsnc23)c1	-4%	-6%
CCN1C(=O)N[C@@H](CCc2ccccc2)[C@H](C(=O)OC)[C@H]1C	-6%	-5%
Cc1cc(C)n(C(=O)COc2ccccc2[N+](=O)[O-])n1	-12%	-7%
Cc1ccc(NC(=O)c2cc(-c3ccc(Br)s3)nc3ccccc23)cc1F	-4%	-22%
O=C(NCc1ccco1)c1ccc(S(=O)(=O)N2CCCc3ccccc32)cc1	i	-19%
O=[N+]([O-])c1ccc(NC(=S)NCc2ccncc2)cc1	-19%	-3%
Cc1ccc([C@@H]2[C@@H]3C(=O)N(C)C(=O)[C@@H]3[C@]3(C)C(=O)N(Cc4ccc(-c5ccccc5)cc4)CC(=O)N23)o1	u	u
Cc1ccc(NC(=S)N(CCN(C)C)Cc2cc3cc(C)cc(C)c3[nH]c2=O)cc1	-28%	-12%
CC1Cc2ccccc2N1C(=O)CCNS(=O)(=O)c1ccc2c(c1)CCC(=O)N2 (stereo not drawn)	-10%	-15%
COc1ccc(N2CCN(C(=O)[C@@H](NC(=O)c3cc(OC)cc(OC)c3)C(C)C)CC2)cc1	-21%	-18%
Cc1ccc(NC(=O)C(c2ccccc2)N2CCN(CC(=O)NC3CC3)CC2)cc1 (stereo not drawn)	i	-9%
CCOc1ccc(CNC(=O)c2cc(=O)[nH]c3ccc(S(=O)(=O)N4CCCC4)cc23)cc1	-8%	1%
COc1ccc(S(=O)(=O)NCc2ccc(C(=O)NCCCN3CCCC(C)C3)cc2)cc1 (stereo not drawn)	-23%	-19%
COc1ccc2c(Cl)c(-c3nnco3)sc2c1	i	-12%
Cc1ccc(N(Cc2ccccc2)C(=O)c2cccc(F)c2)cc1	-15%	-2%
COc1ccccc1NS(=O)(=O)c1cccc(NC(=O)c2nc3nc(C)cc(C)n3n2)c1	x	-23%
COc1ccc(NC(C)=O)cc1CNC(=O)CN1CCOCC1	-10%	-26%
Cc1ccc(S(=O)(=O)N2CCOCC2)cc1NC(=O)Cn1cc(C(F)(F)F)cc(Cl)c1=O	i	-7%
Cc1cccc(C)c1NC(=O)C(c1ccccc1F)n1c(=O)c(-c2ccco2)nc2ccccc21 (stereo not drawn)	-26%	-6%
O=c1oc2ccc3ccccc3c2cc1-c1nc2ccccc2o1	-13%	-8%
CCOC(=O)C(=NC1CCS(=O)(=O)C1)NNc1ccc(Br)cc1 (stereo not drawn)	u	-20%
